rRNA inh HTS = inhibits bacterial ribosomal RNA function over humanized ribosomes. E. coli WT GFP vs humanized-ribosome RFP mutants, fluorescence, 24 h; stronger effect = lower value; DMSO median 0, no signal -100. GFP signal change (wild-type ribosome), % (test concentration not listed). 1.6% of 350,000 active;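 active = significant combined selectivity score with lowered wild-type GFP, culture density cut under 30%, mutant RFP and density less affected; inactive = any of these conditions unmet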; also: one replicate is shown; some compounds called inactive have numbers as strong as hits
rRNA inh HTS OD600 = second read-out of rRNA inh HTS, no call of its own (marks repeat the call); OD600 change, %; measured here: OD600 growth;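 optical density of the mix in the first replicate; 0 = DMSO median and -100 = no signal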
rRNA inh HTS RFP = recorded beside rRNA inh HTS, whose call it bears; RFP signal change, %; measured here: RFP humanized mutant strains;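 first replicate; 0 = DMSO median and -100 = no signal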
Starred values were filed as active, the others as inactive; & = joins results of further samples.

Start of the listing, in advance, 2 compounds:
SMILES	rRNA inh HTS	rRNA inh HTS OD600	rRNA inh HTS RFP
CN1c2ccc(C#Cc3ccc(F)cc3)cc2[C@H]2[C@H](CCN2S(=O)(=O)c2ccccc2F)[C@@H]1CO	-2.8	-0.1	-1.6
C[C@@H](O)CNC(=O)c1[nH]cnc1C(=O)Nc1ccc(CNC(=O)OC(C)(C)C)cc1	15.0	13.7	0.8

The whole of this part, from the first entry:
SMILES	rRNA inh HTS	rRNA inh HTS OD600	rRNA inh HTS RFP
CN1c2ccc(C#Cc3ccc(F)cc3)cc2[C@H]2[C@H](CCN2S(=O)(=O)c2ccccc2F)[C@@H]1CO	-2.8	-0.1	-1.6
C[C@@H](O)CNC(=O)c1[nH]cnc1C(=O)Nc1ccc(CNC(=O)OC(C)(C)C)cc1	15.0	13.7	0.8
CC(=O)NCCNc1nc2cc(-c3ccc(C(=O)N4CCN(C)CC4)cc3)sc2c(=O)n1C	9.8	8.6	-1.1
COCC#Cc1ccc([C@@H]2[C@H](CO)N3CCCCN(S(=O)(=O)c4cccc(OC)c4)C[C@@H]23)cc1	5.3	-3.1	7.4
CC1=C(C(=O)N2CCCCCC2)CC(CC(=O)NCCN2CCOCC2)C(=O)N1CCCN1CCCC1=O (stereo unspecified)	10.6	23.5	-1.6
CNc1cnc(-c2ccc(F)c(F)c2F)cn1	3.1	15.2	2.3
C[C@@H]1CN([C@H](C)CO)C(=O)c2cc(C3=CCCCC3)cnc2O[C@@H]1CN(C)C(=O)c1cccnc1	5.6	12.2	-3.7
CC1(C(=O)NS(=O)(=O)C2CC2)CCN(C(=O)c2ccccc2C(F)(F)F)C1 (stereo unspecified)	7.7	15.4	3.7
FC(F)(F)c1ccccc1Cc1c(C2CCCCC2)nc2ccc(Cl)cn12	0.9	4.6	-2.3
COc1ccc(-c2ccc([C@@H]3[C@@H](C#N)N(C(=O)C4CCC4)[C@@H]3CO)cc2)cc1	2.4	3.5	2.3
COc1cccc(-c2ccc([C@@H]3[C@@H](CO)N4CCCCN(S(=O)(=O)c5cn(C)cn5)C[C@H]34)cc2)c1	-0.1	-9.3	1.2
CCOc1ccc(NC(=O)CN(C)C(=O)c2cc3c(s2)CCC3)cc1OCC	-0.3	-22.6	-4.8
CCCC(=O)Nc1ccc2c(c1)C(=O)N(C)[C@@H]1CC[C@@H](CC(=O)NCc3ccccc3)O[C@@H]1CO2	0.9	-1.4	1.0
CCC(=O)Nc1ccc2c(c1)OC[C@H](C)N(C(=O)c1ccccn1)C[C@@H](C)[C@H](OC)CN(C)C2=O	-2.5	-2.9	0.5
Cc1noc(C)c1S(=O)(=O)Nc1ccc2c(c1)C(=O)N([C@@H](C)CO)C[C@H](C)[C@@H](CN(C)Cc1ccc(C(=O)Nc3ccccc3N)cc1)OCCCC[C@@H](C)O2	2.8	6.3	1.3
O=C(Cc1cccnc1)N1CC2(C1)[C@@H](c1ccccc1)[C@H](CO)N2C(=O)C1CCOCC1	2.9	13.9	0.2
CO[C@H]1CC[C@H]2CCOc3c(C#N)cccc3C(=O)N(C)C[C@@H](C)C(=O)N(C)C[C@@H]1O2	2.4	10.3	-5.4
O=C(C1CCCC1)N1CC[C@@H]2[C@@H](CO)Nc3ccc(Br)cc3[C@@H]21	-6.7	-8.7	1.4
O=C(C[C@H]1C[C@H]2c3cc(NC(=O)c4cccnc4)ccc3O[C@H]2[C@H](CO)O1)NCC(F)(F)F	5.2	11.8	-0.3
O=C(Nc1cc(F)ccc1F)N1CC(=O)N2[C@H](CO)[C@H](c3ccc(-c4ccc(F)cc4)cc3)[C@@H]2C1	-7.7	-38.0	34.2
CO[C@@H]1CN(C)C(=O)c2ccc(NS(=O)(=O)c3ccccc3Cl)cc2OC[C@H](C)NC[C@@H]1C	1.7	2.5	-0.1
COCC(=O)Nc1ccc2c(c1)[C@H]1C[C@@H](CC(=O)NCc3cc(F)ccc3F)O[C@H](CO)[C@H]1O2	-0.8	-3.7	0.5
C[C@@H]1CCCCO[C@H](CN(C)C(=O)Nc2cccc3ccccc23)[C@H](C)CN([C@@H](C)CO)C(=O)c2cc(NC(=O)Nc3ccc4c(c3)OCO4)ccc2O1	0.3	4.6	-3.0
COc1ccccc1CNC(=O)C[C@@H]1CC[C@H]2[C@@H](COC[C@H](O)CN2Cc2ccccc2)O1	-2.7&4.5	-4.8&0.5	-3.7&3.0
C[C@H](CO)N1C[C@H](C)[C@@H](CN(C)C)Oc2ccc(NS(=O)(=O)c3ccccc3)cc2CC1=O	-0.5	0.3	-1.5
Further structures:
SMILES	rRNA inh HTS	rRNA inh HTS OD600	rRNA inh HTS RFP
Cc1noc(C)c1S(=O)(=O)Nc1cccc2c1O[C@@H](CN(C)Cc1ccc(C(F)(F)F)cc1)[C@@H](C)CN([C@@H](C)CO)C2=O	-3.2	-0.9	2.0
C[C@@H]1CN([C@H](C)CO)C(=O)c2cccc(NC(=O)Nc3ccccc3)c2O[C@H]1CN(C)S(C)(=O)=O	-1.2	4.9	4.1
C[C@@H]1CN([C@@H](C)CO)S(=O)(=O)c2ccc(-c3ccccc3)cc2O[C@@H]1CN(C)Cc1ccccn1	-13.2	-30.2	-1.0
O=C(c1ccncc1)N1CCCCN2[C@H](CO)[C@@H](c3ccc(C#Cc4ccccn4)cc3)[C@H]2C1	5.6	8.1	-1.3
C[C@@H]1CN([C@@H](C)CO)C(=O)c2ccccc2-c2ccccc2CO[C@H]1CN(C)C(=O)Nc1cccc(Cl)c1Cl	0.2	4.5	-1.1
CO[C@@H]1CN(C)C(=O)c2cc(NC(C)=O)ccc2OC[C@H](C)N(CCc2ccccc2)C[C@@H]1C	1.6	-1.2	-1.4
CC(C)(C)OC(=O)N1CCc2onc(-c3ccccc3F)c2C1=O	8.6	3.6	0.9
COc1ccc(OC)c(NC(=O)C2(C)CCN2C(C)C)c1 (stereo unspecified)	13.3	-2.8	1.8
CCOC(=O)C1=CCC(c2ccc([N+](=O)[O-])cc2)N(S(=O)(=O)c2ccc(C)cc2)C1 (stereo unspecified)	-0.7	-5.8	0.9
CC(C)NC(=O)N(C)C[C@@H]1Oc2ccc(NC(=O)Nc3ccc(C(F)(F)F)cc3)cc2CC(=O)N([C@@H](C)CO)C[C@H]1C	-5.3	-14.9	1.7
COc1ccc(CN(C)C[C@@H]2Oc3ccc(NC(=O)NC4CCCCC4)cc3C(=O)N([C@@H](C)CO)C[C@H]2C)cc1	1.4	-7.9	-1.3
CC(C)CC#Cc1ccc2c(c1)O[C@H](CN(C)Cc1ccncc1)[C@H](C)CN([C@H](C)CO)S2(=O)=O	-21.5	-32.5	36.7
CCOC(=O)C1(C)CCCN1C(=O)c1cccc(F)c1 (stereo unspecified)	-0.5	-0.7	0.6
O=C(NCc1ccccc1)C(c1ccco1)N1CCN(CCN2CCOCC2)CC1 (stereo unspecified)	20.9	10.5	-1.0
COc1ccccc1CN1[C@@H]2CNC[C@H]1C2c1ccc(-c2cccnc2)cc1 (stereo partly specified)	-1.7	-10.2	-5.0
O=C(NCc1ccccc1)[C@H]1[C@H](CO)[C@H]2Cn3c(cccc3=O)[C@@H]1N2Cc1cccnc1	3.9	2.4	-2.9
COc1ccc(-c2ccc3c(c2)O[C@H](CN(C)C(C)=O)[C@@H](C)CN([C@H](C)CO)S3(=O)=O)cc1	-2.0	4.4	3.3
CC=Cc1ccc2n(c1=O)C[C@H]1[C@H](CO)[C@@H](C(=O)N[C@@H](C)c3ccccc3)[C@@H]2N1CC1CC1 (mixture of isomers)	-1.1	0.2	-0.7
CO[C@H]1CN(C)C(=O)c2ccc(NC(=O)c3cnccn3)cc2OC[C@H](C)N(C)C[C@@H]1C	0.2	2.5	-2.2
C[C@@H]1CN([C@H](C)CO)C(=O)c2cc(-c3ccccc3)cnc2O[C@H]1CN(C)C(=O)C1CCOCC1	0.7	4.2	-1.2
Cc1noc(C)c1S(=O)(=O)N(C)C[C@@H]1Oc2ccc(NS(C)(=O)=O)cc2CC(=O)N([C@@H](C)CO)C[C@H]1C	3.5	-1.6	-2.8
COc1ccc(CN2CC3(CN(C(=O)c4ccccc4)C3)c3c([nH]c4cc(OC)ccc34)[C@@H]2CO)cc1	-3.5	2.7	0.3
CC(C)(C)n1nnnc1C(c1cccs1)N1CCN(C/C=C/c2ccccc2)CC1 (stereo unspecified)	-18.0	-11.2	-0.6
O=C1NC[C@@H](CCCCN2C[C@H](Cc3ccccc3)N(CCc3ccccc3)C(=O)C2=O)N(CCc2ccccc2)C1=O	-38.1	-69.1	-3.9
COc1cccc(C#Cc2ccc([C@H]3[C@@H](CO)N(C(=O)C4CCCC4)[C@H]3C#N)cc2)c1	1.3	7.4	-1.4

A second format for two compounds above:
Values run as follows: rRNA inh HTS, rRNA inh HTS OD600, rRNA inh HTS RFP
Cc1noc(C)c1S(=O)(=O)Nc1cccc2c1O[C@@H](CN(C)Cc1ccc(C(F)(F)F)cc1)[C@@H](C)CN([C@@H](C)CO)C2=O
→ -3.2, -0.9, 2.0
CC(C)(C)n1nnnc1C(c1cccs1)N1CCN(C/C=C/c2ccccc2)CC1 (stereo unspecified)
→ -18.0, -11.2, -0.6

Following part:
SMILES	rRNA inh HTS	rRNA inh HTS OD600	rRNA inh HTS RFP
O=C(Nc1ccc2c(c1)OCCO2)C(c1ccncc1)n1c(=O)c(-c2ccco2)nc2ccccc21 (stereo unspecified)	0.5	3.7	-0.8
CCc1cccc(NC(=O)COC(=O)c2c(-c3ccccc3)noc2C)c1	-12.8	-9.7	1.2
O=C(C[C@H]1CC[C@H]2[C@@H](COC[C@@H](O)CN2Cc2nccs2)O1)NCc1ccc(Cl)cc1	-2.6	2.0	2.6
O=C(Cc1ccccn1)N[C@@H]1CC[C@@H](CCNS(=O)(=O)c2cccc(F)c2)O[C@@H]1CO	-1.8	-1.7	-1.9
CN[C@H]1C[C@@H](c2ccccc2)N(C(C)=O)C[C@H]1CO	12.5	14.6	1.6
C[C@@H]1CN([C@H](C)CO)C(=O)c2cc(NC(=O)c3ccncc3)ccc2O[C@@H]1CN(C)C(=O)Nc1ccc2c(c1)OCO2	4.9	5.9	-1.7
O=C(c1ccccn1)N1CC[C@@H]2[C@H](CO)Nc3ccc(-c4ccccc4F)cc3[C@@H]21	-3.3	-6.9	0.5
C[C@@H]1CN([C@@H](C)CO)S(=O)(=O)c2ccc(C#CC(C)(C)O)cc2O[C@H]1CN(C)C	1.6	5.4	-3.7
CC1(C(=O)NS(=O)(=O)c2cccc(Cl)c2)CCN1C(=O)Cc1ccccc1 (stereo unspecified)	3.5	6.9	-0.5
CC(=O)Nc1cccc(-c2ccnc3c2CC(C(=O)Nc2cccc(OC(F)(F)F)c2)O3)c1 (stereo unspecified)	2.4	-7.9	5.8
O=C(C1CC1)N1CC[C@@H]2[C@@H](CO)Nc3ccc(-c4ccc(F)cc4)cc3[C@@H]21	-5.4	-10.8	-0.9
C[C@H]1CN([C@@H](C)CO)C(=O)c2cc(NS(=O)(=O)c3ccc(Cl)cc3)ccc2O[C@@H]1CN(C)Cc1ccc(Oc2ccccc2)cc1	2.0	-3.0	1.9
COc1ccc(NC(=O)C(c2ccnc3ccccc23)n2c(=O)c(-c3ccccc3)nc3ccccc32)cc1 (stereo unspecified)	4.5	2.9	9.7
O=C(CCN1CCCCC1)N[C@@H]1CC[C@@H](CCn2cc(-c3ccc(F)cc3)nn2)O[C@@H]1CO	1.3	5.7	0.2
COc1ccccc1NC(=O)N1CC(=O)N2[C@H](C1)[C@@H](c1ccc(C#CC3CC3)cc1)[C@@H]2CO	3.3	-17.8	5.8
O=C(C[C@H]1CC[C@H]2[C@@H](COC[C@@H](O)CN2C(=O)c2ccccc2F)O1)NCc1ccccc1	-2.1	4.8	-4.2
COc1ccc(CN(C)C[C@H]2Oc3ccc(NC(=O)CCC(F)(F)F)cc3C(=O)N([C@H](C)CO)C[C@@H]2C)cc1	4.0	-2.1	0.5
CN1C(=O)[C@@]2(C3=C(CCCC3=O)OC3=C2C(=O)CC(C)(C)C3)c2ccccc21	15.2	16.4	-2.9
CN1C(=O)c2cc(NS(=O)(=O)c3ccc(F)cc3)ccc2OC[C@H]2O[C@@H](CC(=O)NCC(F)(F)F)CC[C@@H]21	1.6	7.0	-1.4
CN(C)c1ccc2c(c1)[C@@H]1C[C@@H](CC(=O)NCc3ccc(Oc4ccccc4)cc3)O[C@H](CO)[C@@H]1O2	-7.2	-40.5	14.1

Random excerpt: 6 entries already listed
SMILES	rRNA inh HTS	rRNA inh HTS OD600	rRNA inh HTS RFP
CC(=O)Nc1cccc(-c2ccnc3c2CC(C(=O)Nc2cccc(OC(F)(F)F)c2)O3)c1 (stereo unspecified)	2.4	-7.9	5.8
O=C(C1CC1)N1CC[C@@H]2[C@@H](CO)Nc3ccc(-c4ccc(F)cc4)cc3[C@@H]21	-5.4	-10.8	-0.9
CN(C)c1ccc2c(c1)[C@@H]1C[C@@H](CC(=O)NCc3ccc(Oc4ccccc4)cc3)O[C@H](CO)[C@@H]1O2	-7.2	-40.5	14.1
CN[C@H]1C[C@@H](c2ccccc2)N(C(C)=O)C[C@H]1CO	12.5	14.6	1.6
O=C(C[C@H]1CC[C@H]2[C@@H](COC[C@@H](O)CN2C(=O)c2ccccc2F)O1)NCc1ccccc1	-2.1	4.8	-4.2
C[C@@H]1CN([C@@H](C)CO)S(=O)(=O)c2ccc(C#CC(C)(C)O)cc2O[C@H]1CN(C)C	1.6	5.4	-3.7

Source: PubChem

The list is partial. The share of hits here may be higher or lower than overall.
